Screens: PubChem BioAssay, several laboratories
Ecoli growth: inhibitors of Escherichia coli growth; OD600 absorbance (no concentration beside the values); OD600, 23 h; hits give low values; 330,000 tested, 0.21% active;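 active = OD600 absorbance below the run mean of sample wells minus 3.6 SD, in any replicate, cut at about 0.56 in these data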;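 note: stock transfer was 300 nL into about 60 µL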
UCH37 inh: human UCH37 deubiquitinating enzyme inhibition; 330,000 tested, 0.33% active; inhibition, % (concentration not given with the values); Q9Y5K5; purified proteasome/UCH37, Ub-AMC cleavage fluorescence;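 active = mean of two replicates above 20%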;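 note: 0% = compound-free wells with enzyme and 100% = wells lacking proteasome; stock transfer was 100 nL into about 20 µL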
Target sequence (Q9Y5K5 whole entry, looked up): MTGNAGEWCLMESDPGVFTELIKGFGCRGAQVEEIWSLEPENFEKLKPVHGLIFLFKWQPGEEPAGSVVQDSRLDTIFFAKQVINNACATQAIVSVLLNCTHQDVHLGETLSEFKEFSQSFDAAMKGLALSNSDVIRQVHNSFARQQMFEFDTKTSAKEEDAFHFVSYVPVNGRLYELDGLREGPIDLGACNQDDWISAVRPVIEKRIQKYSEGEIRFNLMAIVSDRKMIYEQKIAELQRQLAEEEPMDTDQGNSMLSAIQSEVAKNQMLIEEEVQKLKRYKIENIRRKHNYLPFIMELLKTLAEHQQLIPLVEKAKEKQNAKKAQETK
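assay system = human UCH37 enzyme supplied as purified proteasome complex | amount = proteasome at 0.15 nM in the dispensed enzyme solution | schedule = 30 min compound-proteasome preincubation then 25 min substrate reaction, room temperature | measured by = fluorescence, ex 355 nm, em 460 nm | benchmarks = no-proteasome wells (full inhibition) and compound-free wells (no inhibition)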
Vif TR-FRET: inhibitors of Vif binding to APOBEC3G peptide, primary screen, biochemical, TR-FRET, GST-Vif 1-94, biotin-A3G peptide, dose response retest (AID 1117319); TR-FRET GST-Vif / biotin-A3G peptide binding; higher % means a stronger effect; test concentration not given here; strong numbers were not always called active; one-dose inhibition, %; IC50 in µM for titrated hits; 260,000 tested, 0.57% active;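 active = above the screen mean plus three standard deviations and confirmed in dose response; inconclusive = results disagree or hit not tested in dose response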;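 note: Vif residues 1-94 fused to GST binding biotinylated APOBEC3G peptide 110-148; 0% = full assay without inhibitor and 100% = GST in place of GST-Vif; retest series ran down from 100 µM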
FGF22 binding: FGF22 (human) thermal shift binding. AID 651658. recombinant FGF22 thermal shift, SYPRO orange fluorescence; percent of sucrose octasulfate shift, DMSO zero. Q9HCT0. calls only at 9.99 µM. 340,000 tested, 1.5% active;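 active = melting point raised past a set limit in the mean and every replicate; inconclusive = no clear call; three in four hits are not shown here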
Target sequence (Q9HCT0 whole entry, looked up): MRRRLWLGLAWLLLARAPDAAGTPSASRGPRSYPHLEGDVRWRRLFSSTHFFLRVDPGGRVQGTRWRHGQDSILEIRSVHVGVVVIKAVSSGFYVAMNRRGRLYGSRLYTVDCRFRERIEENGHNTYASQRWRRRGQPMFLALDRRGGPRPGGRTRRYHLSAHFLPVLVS
HNF4A DNA FP: change in binding of human HNF4 alpha to DNA. P41235. HNF4a-FITC DNA binding, fluorescence polarization, 1 h. activity change, % at 10 µM. 360,000 tested, 0.3% active. AID 1224865; in the data active = activity change above about 30%, passing the limit was not always enough;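 note: controls were the assay level and a saturating level of protein; the project sought stronger binding though the title names inhibitors; some compounds called inactive have numbers as strong as hits; positive values seem to mean higher polarization but the record does not say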
Target sequence (P41235 whole entry, looked up): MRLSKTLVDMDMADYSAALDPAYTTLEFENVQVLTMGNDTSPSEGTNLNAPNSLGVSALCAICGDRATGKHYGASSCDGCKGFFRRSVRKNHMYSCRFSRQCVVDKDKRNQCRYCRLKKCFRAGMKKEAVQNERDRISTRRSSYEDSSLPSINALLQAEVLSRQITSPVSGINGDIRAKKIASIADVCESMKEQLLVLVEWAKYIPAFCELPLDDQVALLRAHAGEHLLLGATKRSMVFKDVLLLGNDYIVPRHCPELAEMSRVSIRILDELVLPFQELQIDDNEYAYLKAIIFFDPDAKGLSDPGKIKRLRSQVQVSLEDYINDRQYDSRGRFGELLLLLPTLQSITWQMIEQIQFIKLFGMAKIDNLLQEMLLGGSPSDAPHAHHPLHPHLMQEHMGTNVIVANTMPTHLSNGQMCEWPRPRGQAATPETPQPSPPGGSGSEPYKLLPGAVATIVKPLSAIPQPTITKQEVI
RanGTP-Imp inh: disruptors of Ran-importin-beta complex formation – biochemical, FRET, CFP-Ran, YFP-importin-beta, homogeneous, primary screen; inhibition, % (concentration not given with the values); cell-free CFP-Ran/YFP-importin-beta FRET ratio; 300,000 tested, 1.1% active;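 active = most replicates above 15%; inconclusive = exactly half above 15%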;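 note: 0% = DMSO wells and 100% = Ran loaded with GDP instead of GTP; wells of about 40 µL received 100 nL stock; the first replicate is given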
MLL AF4-AF9 inh: inhibitors of human MLL-AF4/AF9 interaction; P42568; AlphaScreen, biotin-AF4 peptide binding to FLAG-AF9; inhibition, % at 10 µM; 350,000 tested, 0.47% active;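 active = every replicate reaching a set inhibition limit, whatever the replicate mean, cut at about 25% in these data; inconclusive = mean inhibition reaches that limit but some replicates miss it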;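 note: 0% = plate neutral control median and 100% = total signal loss; the record names both 10 and 1 µM as test concentration; the first replicate is given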
Starred values were filed as active, the others as inactive; i = inactive; u = inconclusive; x = not tested or not shown; + = active, no number; & = joins results of further samples. A portion of the library. The share of hits here may be higher or lower than overall.

SMILES	Ecoli growth	UCH37 inh	Vif TR-FRET	FGF22 binding	HNF4A DNA FP	RanGTP-Imp inh	MLL AF4-AF9 inh
CC(C)(C)C(=O)Nc1ccc(N2CCN(C(=O)c3cccs3)CC2)cc1	x	x	2%	x	4.2	x	1.3
COc1ccc(CN2CCNC(=O)C2CC(=O)NCCCn2cccn2)cc1C (stereo unspecified)	0.71	-3.2	x	i	-1.1	2.3	0.6
COc1cc(NC(=O)c2ccno2)cc(C(=O)Nc2cccc(C(F)(F)F)c2)c1	0.61	-0.9	x	i	-2.2	2.8	2.1
O=C(CSc1nc2ccccc2c(=O)[nH]1)Nc1ccc(C(=O)O)cc1	0.7	4.0	x	i	4.6	4.2	-2.8
CN1CCN(CC(O)COC(c2ccccc2)c2ccccc2)CC1 (stereo unspecified)	0.68	5.1	18%	i	-3.1	u	-3.8
O=C(CN1C(=O)c2ccccc2S1(=O)=O)NCCc1ccccc1	0.71	6.9	x	i	1.6	5.2	2.3
Cc1ccc(NC(=O)CSc2ccc3nnc(CCNC(=O)c4ccccc4)n3n2)c(C)c1	0.67	2.2	x	x	-3.2	1.9	x
CN(Cc1nc(-c2cccs2)no1)CC1COCCO1 (stereo unspecified)	0.71	1.6	-14%	x	-1.2	0.0	x
O=C(CCc1nc2ccccc2s1)NCc1ccccc1F	0.64	3.8	-8%	i	2.6	1.9	-2.5
CCc1cc2ccc(C)c(C)c2nc1SCC(=O)Nc1cc(C)on1	0.66	2.3	x	i	3.7	4.3	0.2
S=C(NCc1ccccc1)N1CCc2ccccc2C1	0.67	1.0	-4%	i	2.0	0.0	-4.0
CN(N=Nc1cccc([N+](=O)[O-])c1)c1cccc([N+](=O)[O-])c1	0.73	1.9	-5%	x	1.0	3.0	-5.2
Cc1nn(CC(=O)NCCCN2CCCCC2)c(=O)c2cc(-c3ccccc3)nn12	0.69	-0.2	x	i	1.5	-0.9	-1.7
COc1ccc(/C=N/NC(=O)c2cc(Br)ccc2O)cc1Cn1cc(Cl)cn1	x	x	x	i	0.2	-1.7	6.0
CCOC(=S)N/C(=N\S(=O)(=O)c1ccc(C)cc1)c1ccccc1	x	x	-1%	i	2.2	-1.1	-2.9
CC(=O)OCC(C)n1c(=O)c2ccccc2n1C(C)=O (stereo unspecified)	x	x	x	i	0.1	x	0.2
COc1cc(C(=O)Nc2ccc(C)cc2)c(-n2cnnn2)cc1OC	0.65	2.0	-13%	i	3.6	6.7	-0.3
CCCCNC(=S)N(CCN(C)C)Cc1cc2cc3c(cc2[nH]c1=O)OCCO3	0.7	-124	12%	i	5.1	5.7	2.1
CCc1nc(C)cn1S(=O)(=O)c1ccc(Cl)c(Cl)c1Cl	0.68	4.0	-2%	x	-2.1	-5.1	x
CCOC(=O)C1=C(C)N=C2c3ccccc3C(=O)C2C1c1ccc(Br)cc1 (stereo unspecified)	0.69	5.4	-4%	x	x	4.2	x
COc1ccc(C(=O)NC2CCc3ccccc32)cc1OC1CCN(C(C)C)CC1 (stereo unspecified)	0.75	0.9	x	i	3.7	5.1	-3.3
COc1cc(/C=C/C(=O)O)cc(S(=O)(=O)Nc2ccccc2Oc2ccccc2)c1OC	0.67	2.8	x	i	5.6	4.9	u
CN(C(=O)c1cccc(NC(=O)Cc2ccc(NC(=O)C3CCN(C(=O)C4CC4)CC3)cc2)c1)C1CCCCC1	0.7	2.7	1%	i	-0.1	x	-0.1
O=C(Nc1ccc(O)cc1C(=O)O)c1ccc(NC(=O)c2ccco2)cc1	0.66	7.5	-1%	+	-0.8	x	-0.7
CC(=O)N1CC(=O)N=C1SCC(=O)Nc1nc(-c2ccccc2)c(-c2ccccc2)s1	x	x	-30%	x	-2.9	-1.4	x
CC1CCN(CCC(=O)Nc2ccc(F)c(F)c2)CC1	0.7	2.6	-5%	i	-1.4	-9.1	8.5
O=C(C[n+]1ccc(/C=C/c2ccccc2)cc1)c1ccc2c(c1)OCCO2	x	x	9%	i	1.6	11	17
Cc1nc(CSc2nnc(Nc3cccc(C)c3C)s2)cs1	0.64	0.8	24%	i	0.8	-2.6	1.9
CCn1c(SC(C)C(=O)NC2CCCc3ccccc32)nnc1-c1cccs1 (stereo unspecified)	0.71	2.0	70%	x	-0.9	-0.4	x
CC(C)CCNC(=O)C1CCC(=O)N1C(C)C (stereo unspecified)	0.72	1.7	2%	x	-2.5	-2.2	x
O=C(Cn1nc(C(=O)O)c2ccccc2c1=O)NCCC1=CCCCC1	0.68	-0.3	4%	x	-1.6	5.4	x
CCCOc1ccc(C(=O)O/N=C(\CC)c2ccc(C)cc2)cc1	x	x	-4%	x	0.8	-0.1	x
COc1ccc(NC(=O)CSc2ncnc3c2cnn3Cc2ccccc2)cc1	0.71	-3.3	0%	x	-0.1	2.1	x
O=C(CCCSc1nc(-c2ccco2)cc(C(F)(F)F)n1)NCC1CCCO1 (stereo unspecified)	0.77	2.1	7%	x	-2.1	2.5	x
Cc1cc(C)c(Nc2cc(S(=O)(=O)O)c(N)c3c2C(=O)c2ccccc2C3=O)c(C)c1	0.84	34*	x	x	-43	x	x
CCCC(=O)Nc1c(-c2cccs2)c(=O)c2ccccc2n1C	0.64	4.6	1%	x	1.8	3.9	x
COc1ccccc1NC1=C(C)C(=O)CC1	0.71	2.9	2%	x	2.4	-1.8	x
COc1ccc2c(CC(=O)Nc3ccc(OC)c(NS(=O)(=O)c4ccc(F)cc4)c3)coc2c1	0.71	4.3	0%&3%	x	8.7	u	x
O=C(CSc1n[nH]c(=O)[nH]c1=O)c1ccccc1[N+](=O)[O-]	0.71	-0.7	-9%	i	-1.9	0.8	-20
Clc1ccc(Oc2nc3ccccc3n3cccc23)cc1	0.75	-2.0	-14%	x	2.2	1.3	x
CCc1nc(SCC(=O)c2ccc(Cl)s2)c2oc3ccccc3c2n1	0.7	1.5	u	x	-2.3	2.9	x
COc1ccc2nc(Nc3ccccc3)sc2c1	0.68	6.4	-5%	i	-5.4	-1.9	9.3
COc1ccc(CSc2nnc(C)n2N)cc1[N+](=O)[O-]	0.71	1.9	10%	i	-1.2	4.3	-1.0
CC(C)Cc1nnc(NC(=O)CSc2nc(O)c(-c3ccccc3)c(=O)[nH]2)s1	0.69	5.9	x	i	3.4	6.9	-2.8
CC(C(=O)Nc1ccccc1)N1C(=O)c2ccccc2C1=O (stereo unspecified)	0.69	-1.7	3%	i	0.5	x	-1.0
O=C1C2C3C=CC(CC3)C2C(=O)N1c1ccc(Cl)cc1Cl (stereo unspecified)	0.67	-0.2	x	i	1.2	-2.2	-1.1
NC(=O)c1ccccc1N/C=C/C(=O)c1ccccc1	0.7	0.1	1%	x	4.9	-27	x
CCOC(=O)C1=C[C@@H](c2ccccc2)N(S(=O)(=O)c2ccc(C)cc2)[C@H]1c1cccc(Cl)c1	x	x	x	i	1.0	x	-1.9
Cc1ccc(NC(=O)CSc2ccc3nnc(-c4cccnc4)n3n2)cc1	0.73	4.0	x	i	3.3	-3.6	0.0
CCN(CC)CCOC(=O)c1cccc2c1-c1ccccc1C2O (stereo unspecified)	0.6	-51	2%	i	8.0	-1.4	0.4
(next part)
SMILES	Ecoli growth	UCH37 inh	Vif TR-FRET	FGF22 binding	HNF4A DNA FP	RanGTP-Imp inh	MLL AF4-AF9 inh
CCC/C=N/NC(=O)c1ccccc1O	x	x	x	i	-0.4	-1.8	-2.3
O=S(=O)(NCCc1csc(-c2cccnc2)n1)c1cccs1	0.67	3.1	26%	i	-4.4	1.8	-0.5
CC1CCCN(CCS(=O)(=O)c2ccccc2)C1 (stereo unspecified)	0.67	2.1	x	i	-0.9	4.4	-2.3
Cc1ccccc1NC(=O)c1snc2c(=O)[nH]cnc12	0.65	2.7	-10%	i	x	13	-3.2
Cc1ccc(S(=O)(=O)N2CCOCC2)cc1C(=O)N1CCCCCC1	0.73	3.7	-7%	i	-4.4	1.1	-7.5
COc1cc(S(=O)(=O)Nc2ccccc2C)ccc1Cl	0.68	4.4	-1%	x	5.7	2.7	x
CCCOc1ccc(C2/C(=C(\O)c3c(C)[nH]c(C(=O)OC)c3C)C(=O)C(=O)N2CCN(C)C)cc1 (stereo unspecified)	x	4.1	-1%	x	-2.6	1.7	x
Cc1ccc(C)c(S(=O)(=O)Nc2cc(SCC(=O)O)c(O)c3ccccc23)c1	0.7	23*	31%	x	-2.8	x	x
Cc1nc2ccc(Br)cc2c2c1CC(CBr)O2 (stereo unspecified)	0.6	3.2	-4%	i	-4.6	-1.8	-2.6
CN(C(=O)COC(=O)/C=C/c1cccs1)C1CCCCC1	0.64	2.9	-1%	i	6.0	x	3.6
CCn1cc(C(=O)O)c(=O)c2cnc(N3CCN(C(=S)NC(=O)c4ccccc4)CC3)nc21	0.41*	-1.0	-1%	i	-3.1	-1.1	0.0
COc1ccc(C(=O)CCC(=O)NCCc2c[nH]c3ccccc23)cc1	0.7	2.7	-1%	i	-1.4	u	-0.3
COCCNC(=O)CCCn1c(=O)c2cc(OC)c(OC)cc2n(CC(=O)c2ccc(Cl)cc2)c1=O	0.71	5.3	x	x	x	-1.4	0.7
O=C(O)c1ccc(NC(=O)c2ccccc2NC(=O)c2cccc(Br)c2)cc1	0.68	1.1	x	i	-1.9	u	0.5
Cc1ccc2nc(-c3cccc(Br)c3)c(CC3CCCCC3)n2c1	x	x	x	i	4.3	x	-2.8
Cc1cccc2c1N(CC(=O)OC(C)C)C(=O)C2=O	0.74	6.7	2%	i	1.2	0.8	-8.4
Cn1c(SCC(=O)O)nc2sc3c(c2c1=O)CCC3	0.67	8.9	x	i	-0.9	-2.5	-0.2
CCOC(=O)c1c(NC(=S)NC)sc2c1CC(C)(C)SC2	0.67	3.1	23%	i	5.5	4.8	-0.3
O=C(NC(=S)Nc1ccccc1C(=O)O)c1ccc2ccccc2c1	0.67	-10	-3%	i	0.1	-3.2	-1.0
COc1ccccc1NC(=O)Cc1nnc(SCC(=O)NC2CCCCC2)n1C	0.69	2.2	-2%	i	1.1	2.2	-6.6
Cc1nc(C)c(C(=O)O)s1	0.7	3.2	-2%	i	1.1	3.8	-13
CCCCCCCCn1c2c(c(=N)c3ccccc31)CCC2	0.59	0.9	2%	i	7.7	-1.6	14
O=C(CSc1ccc2nnc(-c3ccccn3)n2n1)Nc1ccc(F)cc1	0.71	3.4	2%	i	0.9	-4.0	-5.5
CN(Cc1ccccc1)Cc1c(F)cccc1F	0.72	4.0	13%	x	6.1	-2.8	x
O=C(Nc1ccc(C2CCCCC2)cc1)C1CCN(c2ncccn2)CC1	0.73	3.4	-7%	x	-5.6	-1.4	x

A draw from above in order of molar mass, highest first.
SMILES	Ecoli growth	UCH37 inh	Vif TR-FRET	FGF22 binding	HNF4A DNA FP	RanGTP-Imp inh	MLL AF4-AF9 inh
Cc1ccc(NC(=O)CSc2ccc3nnc(CCNC(=O)c4ccccc4)n3n2)c(C)c1	0.67	2.2	x	x	-3.2	1.9	x
O=C(CCCSc1nc(-c2ccco2)cc(C(F)(F)F)n1)NCC1CCCO1 (stereo unspecified)	0.77	2.1	7%	x	-2.1	2.5	x
COc1ccc(CN2CCNC(=O)C2CC(=O)NCCCn2cccn2)cc1C (stereo unspecified)	0.71	-3.2	x	i	-1.1	2.3	0.6
O=S(=O)(NCCc1csc(-c2cccnc2)n1)c1cccs1	0.67	3.1	26%	i	-4.4	1.8	-0.5
O=C(NC(=S)Nc1ccccc1C(=O)O)c1ccc2ccccc2c1	0.67	-10	-3%	i	0.1	-3.2	-1.0
CN(N=Nc1cccc([N+](=O)[O-])c1)c1cccc([N+](=O)[O-])c1	0.73	1.9	-5%	x	1.0	3.0	-5.2
Clc1ccc(Oc2nc3ccccc3n3cccc23)cc1	0.75	-2.0	-14%	x	2.2	1.3	x
